# E coli growth: E. coli growth inhibition; Escherichia coli growth, OD600, 23 h; hits give low values; OD600 absorbance (test concentration not listed); 330,000 compounds, 0.21% hits; AID 1053175;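 active = OD600 absorbance below the run mean of sample wells minus 3.6 SD, in any replicate, cut at about 0.56 in these data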;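 note: stock transfer was 300 nL into about 60 µL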
# FGF22 binding: shifts melting point of recombinant human FGF22; Q9HCT0; recombinant FGF22 thermal shift, SYPRO orange fluorescence; percent of sucrose octasulfate shift, DMSO zero; calls only at 9.99 µM; 340,000 compounds, 1.5% hits;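 active = melting point raised past a set limit in the mean and every replicate; three in four hits are not shown here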
# Target sequence (Q9HCT0 whole entry, looked up): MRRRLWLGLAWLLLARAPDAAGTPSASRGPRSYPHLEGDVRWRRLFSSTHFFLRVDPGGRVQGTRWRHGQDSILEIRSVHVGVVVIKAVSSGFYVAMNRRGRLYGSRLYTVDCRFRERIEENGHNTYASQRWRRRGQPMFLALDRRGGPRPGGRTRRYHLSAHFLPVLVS
# MLL AF4-AF9 inh: blocks AF4 peptide binding to human AF9 | P42568 | AlphaScreen, biotin-AF4 peptide binding to FLAG-AF9 | inhibition, % at 10 µM | 350,000 compounds, 0.47% hits;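 active = every replicate reaching a set inhibition limit, whatever the replicate mean, cut at about 25% in these data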;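 note: 0% = plate neutral control median and 100% = total signal loss; the record names both 10 and 1 µM as test concentration; the first replicate is given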
# Target sequence (P42568 whole entry, looked up): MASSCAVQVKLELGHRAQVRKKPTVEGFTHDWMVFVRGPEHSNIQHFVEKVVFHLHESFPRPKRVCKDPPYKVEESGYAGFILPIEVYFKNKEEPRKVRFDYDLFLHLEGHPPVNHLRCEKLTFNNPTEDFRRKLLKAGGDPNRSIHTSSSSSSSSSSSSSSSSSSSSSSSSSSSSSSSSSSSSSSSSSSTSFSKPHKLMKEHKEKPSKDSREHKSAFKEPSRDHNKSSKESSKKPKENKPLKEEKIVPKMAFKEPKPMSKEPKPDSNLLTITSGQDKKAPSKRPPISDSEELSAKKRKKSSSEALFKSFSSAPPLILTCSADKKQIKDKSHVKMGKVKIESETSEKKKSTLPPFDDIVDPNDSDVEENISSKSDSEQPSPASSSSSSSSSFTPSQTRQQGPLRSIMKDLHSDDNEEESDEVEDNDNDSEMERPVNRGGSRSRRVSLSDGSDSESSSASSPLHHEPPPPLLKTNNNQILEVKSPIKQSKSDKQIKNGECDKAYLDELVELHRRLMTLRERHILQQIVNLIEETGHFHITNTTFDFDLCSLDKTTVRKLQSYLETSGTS
# Beta cell apopt: blocks beta cell apoptosis. INS-1E cytokine-induced death, ATP luminescence, 48 h; percent of positive-control rescue, neutral wells zero. protection from apoptosis, % (test concentration not listed). 300,000 compounds, 0.8% hits. AID 435005;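 active = all replicates at 75% or more, or half of them and the mean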;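 note: 0% = cytokine-treated negative control wells and 100% = positive control rescue; higher means more ATP so stronger rescue from cytokine killing; wells of about 40 µL received 100 nL stock; the first replicate is given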
# T cruzi repl: T. cruzi replication inhibition. T. cruzi beta-gal in NIH3T3, luminescence, 90 h. inhibition, % (concentration not given with the values). 300,000 compounds, 1.4% hits;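 active = mean inhibition across valid replicates above about 55%, limit read from the data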;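 note: signal also drops with host cell toxicity which is not excluded here; 0% = plate median of DMSO wells and 100% = zero luminescence signal; higher percent means less beta-gal luminescence so fewer parasites; stock transfer was 50 nL into about 50 µL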
# Ecoli rRNA inh: inhibits bacterial ribosomal RNA function over humanized ribosomes | E. coli WT GFP vs humanized-ribosome RFP mutants, fluorescence, 24 h; hits give low values; DMSO median 0, no signal -100 | GFP signal change (wild-type ribosome), % (concentration not given with the values) | 350,000 compounds, 1.6% hits;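 active = significant combined selectivity score with lowered wild-type GFP, culture density cut under 30%, mutant RFP and density less affected; inactive = any of these conditions unmet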; note: one replicate is shown; some compounds called inactive have numbers as strong as hits
# A1 inh: inhibitors of the anti-apoptotic protein A1, read as caspase activation; MEF A1-2A-BIM cells, Caspase-Glo 3/7 luminescence, 3 h; percent of clofoctol response, vehicle zero; AID 2462; caspase activation, % (concentration not given with the values); 330,000 compounds, 0.066% hits;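 active = over half of replicate activation scores above 10%, or exactly half above 10 with the replicate mean above 10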;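 note: wells of about 30 µL received 50 nL stock; many hits fall short of the cut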
# UCH37 inh: blocks the human deubiquitinase UCH37; Q9Y5K5; 330,000 compounds, 0.33% hits; purified proteasome/UCH37, Ub-AMC cleavage fluorescence; inhibition, % (test concentration not listed);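 active = mean of two replicates above 20%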;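 note: 0% = compound-free wells with enzyme and 100% = wells lacking proteasome; stock transfer was 100 nL into about 20 µL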
#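 Material: human UCH37 enzyme supplied as purified proteasome complex / Amount: 0.15 nM proteasome as dispensed / Buffer or medium: pH 7.4 Tris-HCl (50 mM) with ovalbumin, ATP-MgCl2, DTT / Times: preincubation 30 min, reaction 25 min, room temperature / Technique: AMC fluorescence from Ub-AMC cleavage, excitation 355 nm, emission 460 nm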
# Ecoli rRNA inh OD600: second read-out of Ecoli rRNA inh, no call of its own (marks repeat the call); OD600 change, %; measured here: OD600 growth;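 optical density of the mix in the first replicate; 0 = DMSO median and -100 = no signal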
# Ecoli rRNA inh RFP: recorded beside Ecoli rRNA inh, whose call it bears; RFP signal change, %; measured here: RFP humanized mutant strains;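 first replicate; 0 = DMSO median and -100 = no signal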
# Active calls of the source: *; i = inactive; . = no result given. An excerpt (hit frequency here may not be typical).
SMILES	E coli growth	FGF22 binding	MLL AF4-AF9 inh	Beta cell apopt	T cruzi repl	Ecoli rRNA inh	Ecoli rRNA inh OD600	Ecoli rRNA inh RFP	A1 inh	UCH37 inh
CC(C)c1ccc(C(=O)Nc2ccc(N3CCOCC3)cc2)cc1	0.672	.	.	0.7	22.7	.	.	.	1.3	0.3
CCCN1CCc2c(sc(NC(=O)c3ccc(S(=O)(=O)N4CCCC4)cc3)c2C(N)=O)C1	0.727	i	-0.3	2.6	-6.8	4.6	11.0	-1.1	0.6	6.6
Cn1cc(S(=O)(=O)N2CCOCC2)cc1C(=O)NCCc1ccccc1	0.717	.	.	4.2	-4.4	.	.	.	0.5	2.6
O=C(NNc1ccc([N+](=O)[O-])cc1)Nc1ccccc1	0.694	i	2.9	1.7	-13.0	9.2	3.9	-1.9	-1.8	11.7
CCc1ccc(CNC(=O)CCc2nnc(Cc3cccc(C(F)(F)F)c3)o2)nc1	0.721	i	-2.0	-5.5	-2.0	7.0	3.2	0.3	0.1	10.6
Cc1cc(-n2c(C)cc(C(=O)COc3cc(F)ccc3[N+](=O)[O-])c2C)no1	0.651	i	-3.4	.	.	-1.0	-6.8	4.2	.	1.4
CCn1c(SCC(=O)NC(C)(C)C)nnc1-c1ccoc1C	0.684	.	.	-0.7	-11.3	.	.	.	-1.9	1.1
O=C(COc1cccc2cccnc12)N/N=C/c1ccc(O)cc1	.	i	-7.1	5.5	-1.5	-2.9	1.6	1.6	0.5	.
CC(C)=CC(=O)N1CCC(n2nccc2NC(=O)CCc2ccccc2)CC1	0.686	i	-2.4	-4.4	17.5	4.2	1.1	2.1	-0.5	4.7
CCN(CC)CC(=O)Nc1c(C)cc(C(C)(C)C)cc1C	0.691	.	.	-4.8	11.6	.	.	.	0.1	3.2
CCOc1cc(C2C3=C(CCCC3=O)N(CC(=O)O)C3=C2C(=O)CCC3)ccc1OC	0.672	i	1.0	-2.1	-5.5	0.6	1.0	-3.3	0.5	0.7
CC[C@H](C)/C=C/C1=CC2=C(Cl)C(=O)[C@@]3(C)OC(=O)C(C(=O)[C@H](C)[C@@H](C)O)=C3C2=CO1	0.648	.	.	12.1	8.8	.	.	.	-0.3	2.2
O=C(N/N=C/C1CC=CCC1)c1ccc(Cl)cc1O (stereo not given)	.	i	-0.2	.	-0.2	-28.8*	-18.6*	-7.0*	0.0	.
COc1ccc(-c2nnc(SCC(=O)Nc3cc(F)ccc3C)o2)cc1	0.72	.	-3.4	-2.4	-5.4	-1.4	-6.7	2.2	-0.5	-0.8
NNC(=O)c1sccc1OCc1ccc(Cl)cc1	0.708	i	-1.0	2.5	27.8	2.3	8.5	1.7	2.9	4.9
O=C(COc1ccc2c3c(c(=O)oc2c1)CCCC3)NCc1ccncc1	0.69	i	0.8	2.5	-2.2	5.3	6.9	-2.5	-0.1	-37.4
COCCNC(=O)CN1C(=O)COc2ccc(S(=O)(=O)N3CCCCCC3)cc21	0.697	i	-2.5	.	-8.5	4.3	5.9	3.0	.	0.9
Cc1ccc(N2CC(C(=O)Nc3ccc4c(c3)OCO4)CC2=O)cc1 (stereo not given)	0.72	.	.	.	-7.1	.	.	.	0.4	3.3
Cc1oc(/C=N/NC(=O)CC2(C)OCCO2)cc1Br	.	i	-0.3	-2.5	-2.6	.	.	.	-0.4	.
CCC1=C2CC[C@H]3C(=O)N(CC)C(=O)[C@H]3[C@H]2[C@@]2(Cc3ccccc3)C(=NCCOC)OC(=O)N2C1=O	.	i	-7.8	-2.8	-20.1	12.4	3.0	8.4	-0.2	4.6
Cc1ccccc1C(=O)O[C@H]1[C@H](Cc2ccccc2)NS(=O)(=O)[C@H]2CC3C=C[C@]12O3	.	i	-13.7	-5.7	.	-0.4	3.0	-1.8	2.1	1.7
CCOC(=O)C1=C(N)Oc2ccc3ccccc3c2C1c1cccnc1 (stereo not given)	0.743	.	.	5.7	56.9*	.	.	.	-1.4	2.5
COc1cccc(CNc2ncnc3cc(Cl)ccc23)c1	0.686	i	-0.3	.	18.0	-43.5	-58.0	4.2	.	4.4
Cc1ccc(S(C)(=O)=NC(=O)NC(=O)c2c(Cl)cccc2Cl)cc1 (stereo not given)	0.608	i	5.3	-2.4	-5.2	-11.9	-11.0	1.0	-0.1	0.9
CCCCN(CC)C(=O)Cn1c(=O)sc2ccccc21	0.645	i	-43.0	0.3	-17.5	3.2	5.4	-0.4	0.5	1.8
O=C(C1CCN(S(=O)(=O)c2ccccc2)CC1)N1CCCCCC1	0.724	i	-1.7	-8.0	-7.7	-2.9	3.8	-1.7	0.6	-0.7
CCC(=O)C1CCCN(C(=O)CCc2nnc(-c3ccc(C(C)=O)s3)o2)C1 (stereo not given)	0.693	i	-0.7	0.1	-7.9	2.2	6.4	-0.6	-0.7	5.7
O=C(Cn1cnc2c(nnn2Cc2ccc(Cl)cc2)c1=O)NCC1CCCO1 (stereo not given)	0.658	.	.	-5.9	-1.9	.	.	.	-0.2	5.2
COc1cc2oc(=O)ccc2cc1-c1c(OC)ccc2ccc(=O)oc12	0.717	i	-2.6	.	.	3.8	-0.4	-3.2	.	6.5
COc1ccccc1-n1c(C)nnc1SCC(=O)Nc1cc(C)cc(C)c1	0.74	.	.	4.0	16.9	.	.	.	-0.1	4.5
CCCc1ccc(OCC(O)CN2CCCC2)cc1 (stereo not given)	0.61	i	-6.1	4.4	-0.9	17.2	2.1	4.2	1.2	3.8
COc1ccc(S(=O)(=O)N2CCOCC2)cc1NC(=O)CN(C)Cc1c(F)cccc1Cl	0.725	i	3.8	6.4	15.6	-21.6	-18.3	2.3	0.5	3.7
O=C(CSc1cccc[n+]1[O-])c1cc2ccccc2o1	0.653	.	.	1.9	60.3*	.	.	.	0.4	4.0
COc1ccc(CC(=O)OCC(=O)Nc2ccc(N3CCOCC3)cc2)cc1	0.676	i	5.0	-4.7	5.5	3.5	5.3	-3.1	-0.4	4.6
Cc1cc(C)cc(Nc2nc(-c3ccc(S(=O)(=O)N4CCCC4)cc3)cs2)c1	0.722	i	-5.0	5.1	13.5	5.0	-3.7	-4.9	-0.3	-82.9
Cc1cccc(N2CCN(C(=O)CNC(=O)c3cccc([N+](=O)[O-])c3)CC2)c1C	0.65	i	3.2	4.3	4.1	-19.0*	-14.7*	6.9*	-0.1	1.3
CCOc1ccccc1NC(=O)N1CCC(NC(=O)c2cccc(C)c2)CC1	0.703	.	.	8.5	-13.0	.	.	.	-0.4	1.9
O=C(O)CN1C(=O)S/C(=C\c2ccc3c(c2)OCO3)C1=O	0.708	i	3.1	2.0	-2.2	-4.9	-6.7	-3.1	0.3	7.7
O=C(Nc1nnc(SCC(=O)N2CCCC2)s1)C1CC(=O)N(c2ccc(F)cc2)C1 (stereo not given)	0.737	i	-1.5	-3.6	-2.4	20.1	12.5	3.2	0.5	1.2
O=C(NC1CCCCC1)n1c(=O)oc2ccc(Cl)cc21	0.667	i	0.2	-0.4	-3.7	-0.4	0.6	-2.3	-1.1	3.8
CC(C)c1ccc(C2C(C#N)=C(N)Oc3c2oc(CO)cc3=O)cc1 (stereo not given)	0.675	i	0.3	0.5	-2.0	.	.	.	0.4	2.9
CCC1(c2ccccc2)NC(=O)N(CC(=O)NCC2COc3ccccc3O2)C1=O (stereo not given)	0.696	.	-4.8	.	.	-0.1	1.6	0.3	.	-0.6
CC(=O)Nc1nc(-c2ccc3c(c2)CCN3S(C)(=O)=O)cs1	0.65	i	-0.9	.	-8.4	8.4	8.6	-0.9	-2.0	-1.8
CCCCNc1c(-c2ccc(OC)c(SC3CCCCC3)c2)nc2ccc(Cl)cn12	0.695	i	.	33.9	.	4.6	-10.0	0.2	1.0	-41.0
CN1CCN(CC(=O)N2c3ccccc3C(C)(c3ccccc3)CC2(C)C)CC1 (stereo not given)	0.709	.	.	12.8	32.1	.	.	.	0.3	1.2
CCC(c1nnc(SCC(=O)Nc2ccc(C(C)=O)cc2)n1C1CCCCC1)N(C)C (stereo not given)	0.658	i	2.2	-0.5	7.6	-2.5	-1.4	-1.2	-3.0	7.2
Fc1ccc(/C=N/NC(=S)NCCc2ccccc2)cc1F	.	i	-1.7	-8.0	1.6	-2.9	3.1	-2.6	-0.1	.
Nn1c(SCC(=O)NC2CCCc3ccccc32)nnc1C1CC1 (stereo not given)	0.711	i	-0.7	-5.4	.	-1.2	4.3	-0.7	-0.2	3.6
CCNCCOC(c1ccccc1)c1ccccc1	0.717	.	.	-5.2	-22.2	.	.	.	-0.1	-0.9
N/C(CC(=O)Nc1ccc(F)cc1)=N\O	.	i	2.7	-4.1	-12.5	-0.2	8.4	-6.0	0.6	.
O=C(/C=C/c1ccco1)c1cccc([N+](=O)[O-])c1	0.71	i	8.2	.	.	-3.4	21.7	-4.4	.	1.5
CCOc1ccc(CCNC(=O)CCc2c(C)nc3ncnn3c2C)cc1OCC	0.618	.	.	3.4	4.9	.	.	.	1.2	0.3
COc1ccccc1-c1nnc(NC(=O)c2ccc(S(=O)(=O)N3CCCC3)cc2)o1	0.679	i	1.8	-3.4	-20.2	11.7	-0.7	1.0	-0.4	6.4
Cn1c(SCC(=O)NNC(=O)Cc2ccccc2)nnc1-c1ccc(Cl)cc1	0.739	.	.	3.0	21.0	.	.	.	0.8	0.8
COc1ccc(NC(=O)CN2C(=O)c3cccc4cccc2c34)cc1OC	0.765	.	.	-0.3	17.1	.	.	.	-1.1	-11.8
CCOC(=O)c1cnc2c(C)c(Cl)ccc2c1NCCCN1CCOCC1	0.645	i	-0.1	.	19.0	-2.9	5.4	-1.6	0.9	-0.9
CC1(C)CC(=O)c2cc(C(=O)N3CCCC(C)(C)C3)c(=O)n(-c3ccccc3)c2C1	0.782	.	.	-3.4	3.6	.	.	.	0.5	-5.6
O=C(Cc1cccs1)Nc1ccc(NC(=O)c2ccco2)cc1	0.669	.	.	-3.8	-6.8	.	.	.	-2.0	-47.0
O=C(Nc1nnc(C2CC2)s1)c1ccccn1	0.667	i	6.6	14.8	-36.1	-33.6	-27.6	-18.1	-7.9	3.5
CCCn1c(N)c(N(CCOC)C(=O)CSc2ccccc2)c(=O)[nH]c1=O	0.709	i	-2.5	-5.7	.	21.9	11.8	-1.2	0.3	1.2
O=C(Nc1cccc([N+](=O)[O-])c1)c1cccc(C(=O)Nc2cccc([N+](=O)[O-])c2)c1	.	i	-0.2	12.6	-18.4	3.4	8.9	0.3	-0.7	.
O=C(CSc1ncccn1)Nc1ccc(Cl)c(S(=O)(=O)N2CCOCC2)c1	0.71	i	-0.9	-1.2	.	-9.7	-23.9	-1.1	-0.2	0.5
